Screening data (PubChem BioAssay)
Rce1 inh – inhibitors of yeast Ras-converting enzyme; AID 2563; yeast membranes, quenched prenylated peptide cleavage fluorescence; actives 0.27% (n = 290,000); calls only;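 active = fall in fluorescence gain of 50% or more versus controls, with final raw signal at or below 3038400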;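 note: plate controls were neutral control wells for no effect and wells lacking membranes for full effect; tested at 10 µM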
Target sequence (Q03530 whole entry, looked up): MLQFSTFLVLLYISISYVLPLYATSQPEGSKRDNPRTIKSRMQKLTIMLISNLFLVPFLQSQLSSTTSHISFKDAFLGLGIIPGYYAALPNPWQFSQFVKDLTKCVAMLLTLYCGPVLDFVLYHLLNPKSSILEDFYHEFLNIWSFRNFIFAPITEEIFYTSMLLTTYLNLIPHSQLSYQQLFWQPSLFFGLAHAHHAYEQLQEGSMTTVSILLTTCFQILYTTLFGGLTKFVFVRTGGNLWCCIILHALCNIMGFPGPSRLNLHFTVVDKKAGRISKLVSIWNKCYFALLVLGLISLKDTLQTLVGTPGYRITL
eIF4H FP inh – inhibitors of RNA binding by human eIF4H | actives 0.94% (n = 290,000) | AID 2012 | inhibition, % at 35 µM | eIF4H fluorescence polarization binding assay;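 active = 50% or more with normal probe brightness, or confirmed in later tests; about a fifth of its hits are not listed in these tables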;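 note: calls also rest on retests at 20 µM and on dose response follow-up; 0% = protein and probe with vehicle and 100% = probe without protein; strong numbers were not always called active; many hits fall short of the cut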
HIV Env fusion – blocks HIV Env-driven cell-cell fusion; HeLa-JRFL Env/CEM21 cell fusion, luciferase; inhibition, % at 12.3 µM; actives 1.1% (n = 360,000);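 active = mean replicate inhibition score of at least 50 and every replicate individually at or above 50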;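 note: 0% = plate neutral controls and 100% = maraviroc near 300 nM; one replicate is shown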
MT1-MMP act inh – MT1-MMP (human) activation inhibition; GFP/RFP ratio change, % at 20 µM; AID 651647; HT1080 RFP-PRO-GFP cells, GFP/RFP ratio fluorescence, overnight; percent of plate control window, DMSO zero; actives 0.061% (n = 360,000);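 active = GFP/RFP ratio change of at least 30% with cell ATP level not reduced by more than half and red fluorescence within 50% of control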; note: strong numbers were not always called active
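system = RFP-PRO-GFP reporter HT1080 cells | dosing = 20 µM single dose, 1% DMSO | timing = overnight cell settling, then overnight compound exposure, 37 °C, 5% CO2 | read-out basis = GFP/RFP fluorescence ratio | controls = DMSO and RFP-L50D-GFP cell wells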
Yeast UUG start – yeast start codon fidelity modulation | actives 0.13% (n = 350,000) | S. cerevisiae UUG-firefly luciferase reporter, luminescence/redox ratio | AID 602363 | activity score, % at 18.7 µM;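 active = replicate mean at a twofold rise or more, about +100% in these data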;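 note: firefly luciferase made from a UUG start codon reports start codon fidelity; reporter light over untreated wells divided by growth signal over untreated wells; some hits fall short of that in this replicate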
PABP FP inh – blocks human PABP binding to poly(A) RNA; actives 1% (n = 290,000); P11940; inhibition, % at 35 µM; fluorescence polarization;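 active = 50% or more with normal probe brightness, or confirmed in later tests; about a fifth of its hits are not listed in these tables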;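 note: calls also rest on retests at 20 µM and on dose response follow-up; controls were probe without protein and protein plus probe with vehicle; some compounds called inactive have numbers as strong as hits; many hits fall short of the cut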
Target sequence (P11940 whole entry, looked up): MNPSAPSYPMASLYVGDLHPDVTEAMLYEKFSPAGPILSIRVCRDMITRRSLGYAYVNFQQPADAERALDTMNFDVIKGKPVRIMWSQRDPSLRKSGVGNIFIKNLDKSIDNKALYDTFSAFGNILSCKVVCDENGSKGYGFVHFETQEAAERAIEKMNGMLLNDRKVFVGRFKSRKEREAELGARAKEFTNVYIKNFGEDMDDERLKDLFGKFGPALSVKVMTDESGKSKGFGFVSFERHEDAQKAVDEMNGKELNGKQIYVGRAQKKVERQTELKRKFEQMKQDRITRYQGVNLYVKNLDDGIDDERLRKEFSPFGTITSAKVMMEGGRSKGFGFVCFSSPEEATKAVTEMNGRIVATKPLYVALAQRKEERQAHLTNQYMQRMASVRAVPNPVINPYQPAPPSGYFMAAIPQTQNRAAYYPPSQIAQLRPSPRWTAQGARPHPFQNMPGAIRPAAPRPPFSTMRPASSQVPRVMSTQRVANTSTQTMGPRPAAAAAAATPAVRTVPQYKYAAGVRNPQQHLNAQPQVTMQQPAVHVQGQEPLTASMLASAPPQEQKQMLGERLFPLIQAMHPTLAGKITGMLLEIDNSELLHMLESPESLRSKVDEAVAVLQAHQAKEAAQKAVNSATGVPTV
CSC inhib – cancer stem cell inhibition | cancer stem cell-like cells viability, luminescence | inhibition, % at 7.5 µM | actives 1.1% (n = 300,000);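 active = mean at 75% or more and at least half the replicates too; tested in HMLE shEcad cells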;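 note: 0% = median of negative and 100% = median of positive control wells; the first replicate is given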
MT1-MMP act inh RFP – recorded beside MT1-MMP act inh, whose call it bears; RFP signal change, %; measured here: RFP expression control read;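 0 = vehicle wells; hits needed this value within 50% of zero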
Active calls of the source: *; i = inactive; / = not tested or not shown.

SMILES | Rce1 inh | eIF4H FP inh | HIV Env fusion | MT1-MMP act inh | MT1-MMP act inh RFP | Yeast UUG start | PABP FP inh | CSC inhib
C[C@H]1CN([C@@H](C)CO)C(=O)c2c(c3ccccc3n2C)-c2ccccc2CO[C@H]1CN(C)C(=O)[C@@H]1CCCN1C | / | / | -15 | 3 | 10 | 4 | / | /
N/C(=N\N=C\c1ccnc2ccccc12)SC1CC(=O)N(c2ccc(Br)cc2)C1=O (configuration not stated) | i | 3 | / | -1 | -1 | -18 | -4 | 3
Cc1cccc(NC(=O)COc2coc(CN3CCN(c4ccccc4)CC3)cc2=O)c1 | i | / | 17 | -7 | -16 | / | / | -5
N#Cc1cc(C#N)c(N2CCN(c3cccc(Cl)n3)CC2)nc1N | i | -1 | -140 | -6 | -4 | -27 | 2 | 9
COc1ccc(C2=NN(CN3C(=O)C(=O)c4ccccc43)C(c3ccc(OC)cc3)C2)cc1 (configuration not stated) | / | 9 | -9 | -3 | 7 | / | 4 | 15
COc1ccccc1N1CCN(C2CCN(C(=O)COc3cccc(C)c3)CC2)CC1 | i | -12 | 13 | 5 | 5 | / | -6 | 20
COCCn1c(N2CCCC2)nc2c1c(=O)[nH]c(=O)n2C | i | 3 | -15 | -4 | -1 | -12 | 1 | -4
Cc1noc(/C=C/c2ccco2)c1S(=O)(=O)N1CCC(C(=O)N2CCc3ccccc32)CC1 | i | 12 | 9 | -3 | -4 | -11 | 8 | 4
CC(C(=O)NCC(=O)Nc1ccc(F)c(F)c1F)N1CCN(c2ccc(O)cc2)CC1 (configuration not stated) | / | / | -2 | -6 | -1 | -12 | / | /
Cc1ccc(SCCC(=O)N2CCOCC2)cc1 | i | 0 | / | 1 | 2 | -11 | -8 | -1
COc1ccccc1NC(=O)c1nnn(Cc2ccccc2)c1NC(C)=O | i | 0 | -125 | -1 | 2 | -20 | 6 | 3
Cc1ccccc1NC(=O)CSc1nc2cc3c(cc2cc1C)CCC3 | i | -3 | / | -17 | -21 | / | -14 | /
N#CC1=C2Sc3ccccc3N2CCCC1=O | i | -2 | / | 2 | 2 | -5 | 3 | -3
Cc1ccc(NC(=O)c2cc3cc(OC(F)(F)F)ccc3[nH]2)cc1 | i | 3 | 26 | / | / | / | -13 | 10
CCOc1ccc(OCC)c(S(=O)(=O)N2CCOCC2)c1 | i | 0 | 0 | -12 | 2 | 9 | -2 | 8
CCCn1c(-c2ccc[nH]c2=O)nc2ccccc21 | i | -10 | -18 | 5 | 6 | -17 | -14 | 11
NC(CSCc1ccccc1Cl)C(=O)O (configuration not stated) | i | 3 | 9 | 0 | 0 | / | -2 | 0
O=C(Cc1nc2ccccc2[nH]c1=O)c1ccc(Cl)cc1 | i | -3 | -180 | -47 | 4 | / | 8 | -23
O=C(NC1CCCc2c1cnn2-c1ccc(F)cc1F)c1csnn1 (configuration not stated) | i | 2 | / | 1 | -4 | -21 | -3 | 0
CN(C(=O)c1ccc(NC(=O)C2CCN(C(=O)OC(C)(C)C)CC2)cc1)C1CCC1 | / | / | 22 | -2 | -4 | 9 | / | -12
Cc1ccc(C)c(N2CCN(C(=O)CCn3c(=S)[nH]c4cc5c(cc4c3=O)OCO5)CC2)c1 | i | -8 | -28 | -4 | -9 | -16 | -11 | 35
CN1CCN(CCCNC(=O)c2ccc3c(c2)N(Cc2ccc(F)cc2)CCS3)CC1 | i | -10 | 11 | -1 | 3 | -13 | 8 | 30
O=C1CN(c2nc(-c3cccnc3)nc3sc4c(c23)CCCC4)CCN1 | i | -3 | 3 | -4 | -3 | -17 | -15 | 21
O=C(CSc1cc(Cl)ccc1Cl)NC1CCCc2ccccc21 (configuration not stated) | i | -1 | -3 | -2 | -2 | -18 | -2 | 15
Cc1cc(C)n(C(C)CNS(=O)(=O)c2ccc(C)c(C)c2)n1 (configuration not stated) | i | -9 | -6 | 2 | 5 | -1 | 6 | -6
N#Cc1cccc(C(=O)OCC(=O)c2ccc3c(c2)NC(=O)CO3)c1 | i | / | -7 | 1 | 0 | -23 | / | -1
CC(Sc1nc2sc3c(c2c(=O)n1-c1ccccc1)CCCC3)C(=O)O (configuration not stated) | i | -6 | 28 | -2 | -2 | -13 | -11 | 3
Cc1ccc(CN=C(Nc2ccccc2)NC2CCCCC2)cc1 | i | -8 | -7 | -1 | 6 | / | 2 | -5
O=C(c1ccco1)N1CCN(C(=S)Nc2ccc(Br)cc2Cl)CC1 | i | -4 | 34 | 2 | -1 | -6 | 8 | 2
CC(C)C(=O)Nc1ccc2oc(=O)ccc2c1 | i | 1 | -6 | -4 | 2 | -11 | 24 | /
Cc1cccc(OCc2nnc(SCC(=O)NCc3ccc4c(c3)OCO4)o2)c1 | / | / | 4 | -2 | 5 | -11 | / | /
COc1ccc(N2CCN(C(=O)CSc3nnc(-c4cccnc4)n3-c3ccc(F)cc3)CC2)cc1 | i | -1 | 8 | 0 | -1 | 5 | -9 | -10
O=C1CC(N2CCOCC2)C(=O)N1c1ccc2c(c1)OCO2 (configuration not stated) | i | 6 | / | -7 | 0 | -11 | -4 | 0
CSc1ccccc1C(=O)Nc1ccc(C)cc1C | i | -17 | -13 | -1 | 4 | / | 6 | /
COC1CC(NC(C)=O)C(OC(=O)c2ccccc2)C(CBr)O1 (configuration not stated) | / | / | -89 | -2 | -1 | -1 | / | /
CC(=O)Nc1sc(N/N=C\c2ccccc2F)nc1-c1cccs1 | i | 2 | -10 | 16 | 5 | -29 | -12 | 8
O=C(O)Cc1nc(-c2cccnc2)sc1-c1ccc(Br)cc1 | i | 4 | -2 | 2 | 5 | -14 | -3 | -15
O=C(CCc1ccccc1O)N/N=C/c1ccc(Sc2cccc3cccnc23)o1 | i | -7 | -28 | 1 | -3 | -15 | -16 | 34
O=C(COC(=O)Cc1c[nH]c2ccccc12)Nc1cccc2ccccc12 | i | -4 | 6 | 3 | 4 | / | 8 | -14
CCn1c2ccccc2c2cc(NC(=O)COC(=O)Cc3cn4ccsc4n3)ccc21 | i | -8 | / | -4 | -3 | -20 | -9 | /

In another format: 14 of the compounds above
mol	Rce1 inh	eIF4H FP inh	HIV Env fusion	MT1-MMP act inh	MT1-MMP act inh RFP	Yeast UUG start	PABP FP inh	CSC inhib
C[C@H]1CN([C@@H](C)CO)C(=O)c2c(c3ccccc3n2C)-c2ccccc2CO[C@H]1CN(C)C(=O)[C@@H]1CCCN1C	/	/	-15	3	10	4	/	/
N/C(=N\N=C\c1ccnc2ccccc12)SC1CC(=O)N(c2ccc(Br)cc2)C1=O (configuration not stated)	i	3	/	-1	-1	-18	-4	3
Cc1cccc(NC(=O)COc2coc(CN3CCN(c4ccccc4)CC3)cc2=O)c1	i	/	17	-7	-16	/	/	-5
N#Cc1cc(C#N)c(N2CCN(c3cccc(Cl)n3)CC2)nc1N	i	-1	-140	-6	-4	-27	2	9
COc1ccc(C2=NN(CN3C(=O)C(=O)c4ccccc43)C(c3ccc(OC)cc3)C2)cc1 (configuration not stated)	/	9	-9	-3	7	/	4	15
COc1ccccc1N1CCN(C2CCN(C(=O)COc3cccc(C)c3)CC2)CC1	i	-12	13	5	5	/	-6	20
COCCn1c(N2CCCC2)nc2c1c(=O)[nH]c(=O)n2C	i	3	-15	-4	-1	-12	1	-4
Cc1noc(/C=C/c2ccco2)c1S(=O)(=O)N1CCC(C(=O)N2CCc3ccccc32)CC1	i	12	9	-3	-4	-11	8	4
CC(C(=O)NCC(=O)Nc1ccc(F)c(F)c1F)N1CCN(c2ccc(O)cc2)CC1 (configuration not stated)	/	/	-2	-6	-1	-12	/	/
Cc1ccc(SCCC(=O)N2CCOCC2)cc1	i	0	/	1	2	-11	-8	-1
COc1ccccc1NC(=O)c1nnn(Cc2ccccc2)c1NC(C)=O	i	0	-125	-1	2	-20	6	3
Cc1ccccc1NC(=O)CSc1nc2cc3c(cc2cc1C)CCC3	i	-3	/	-17	-21	/	-14	/
N#CC1=C2Sc3ccccc3N2CCCC1=O	i	-2	/	2	2	-5	3	-3
Cc1ccc(NC(=O)c2cc3cc(OC(F)(F)F)ccc3[nH]2)cc1	i	3	26	/	/	/	-13	10

New compounds follow
SMILES | Rce1 inh | eIF4H FP inh | HIV Env fusion | MT1-MMP act inh | MT1-MMP act inh RFP | Yeast UUG start | PABP FP inh | CSC inhib
CC1CCCN(C(=O)C2(NC(=O)Nc3cccc(F)c3)CCCCC2)C1 (configuration not stated) | i | -2 | 44 | -3 | -2 | -8 | -6 | -11
Cc1cccc(C(=O)N[C@H](C(=O)Nc2ccc(C)c(S(=O)(=O)N(C)C)c2)C(C)C)c1 | i | -4 | 18 | -3 | -7 | / | 12 | -7
c1csc(-c2cn3ccc4ccccc4c3n2)c1 | i | -8 | -159 | 1 | -4 | / | -2 | -2
Cc1nn(-c2ccccc2)c(N)c1Sc1ccccc1[N+](=O)[O-] | i | -2 | 10 | 4 | -7 | / | -11 | -11
CN(C)c1cccc(C(=O)NCc2ccccc2)c1 | i | -1 | 17 | -4 | -2 | -8 | -6 | -3
COc1ccc(S(=O)(=O)N2CCOC2CNC(=O)C(=O)NCC(C)C)cc1 (configuration not stated) | i | 5 | -24 | 1 | 1 | -18 | 6 | -17
O=S(=O)(Nc1ccc2cn[nH]c2c1)c1ccccc1 | i | -1 | 3 | 0 | 1 | 5 | 1 | -7
O=[N+]([O-])c1ccc(Sc2n[nH]c(-c3ccco3)n2)nc1 | i | -1 | 0 | 0 | 1 | / | 2 | /
CCOc1ccc(-c2c[n+]3c(n2-c2ccccc2)CCCCC3)cc1 | i | -2 | 41 | -16 | -28 | / | -7 | 40
CCC1=C(OC(=O)N(CC)CC)N2C(=O)OC(=NCC(=O)OC)[C@]2(C)[C@H]2C1=CC[C@H]1C(=O)N(C)C(=O)[C@H]12 | i | -16 | -34 | 0 | 2 | -6 | 2 | -1
Cc1ccccc1-c1nc(CS(=O)CC(=O)NCCN2CCOCC2)c(C)o1 (configuration not stated) | i | 0 | / | 2 | 8 | -13 | -10 | -6
CN(Cc1ccc(C(C)(C)C)cc1)C(=O)C1CSC2(C)CCC(=O)N12 (configuration not stated) | / | / | / | 2 | -1 | 11 | / | 12
N#Cc1ccccc1OCC(=O)Nc1ccc2c(c1)OCCCO2 | i | -15 | -60 | 5 | 8 | -13 | 4 | 6
COC(=O)CCC(=O)c1oc2ccccc2c1N | i | 4 | -29 | -1 | -1 | -17 | 1 | -2
COCCNC(=O)CCc1c(C)nc2c(-c3ccc(F)cc3)c(C)nn2c1C | i | -2 | 2 | 0 | 2 | -5 | -4 | -14
COCCNc1nnc(SCC(=O)NC(=O)c2ccccc2OC)s1 | i | -11 | -2 | 2 | 1 | -11 | -13 | -4
O=C1c2ccccc2C(Nc2ccc(F)c(Cl)c2)N1Cc1ccco1 (configuration not stated) | i | 6 | 1 | -3 | -9 | -6 | -8 | 0
CC1CCN(C(=O)CN2C(=O)NC(C)(c3ccc4ccccc4c3)C2=O)CC1 (configuration not stated) | / | / | / | 2 | -4 | -8 | / | -5
Cc1ccn2c(CN3CCOCC3)c(-c3ccccc3)nc2c1 | i | -6 | / | 1 | 4 | -19 | -12 | -3

An excerpt; count on the stated rates, not on these rows.
